# miR-21 FLuc: miR-21 reporter, rising signal | HeLa miR-21 FLuc reporter, luciferase, 48 h | Potency, µM (series often up to 38.3 µM), without a hit: at the top dose reporter change, positive = more light | 340,000 tested, under 10 active | AID 2288; active = well fitted rising curve with a large enough effect; inconclusive = small, poorly fitted or top-dose-only effect; inactive = no such curve, though single readings can be large or run the other way;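 further: % of control where 0% means no effect; miR-21 action dims this reporter so a rising signal means less miR-21 action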
#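 Compounds were titrated across several concentrations (up to approximately 40 uM) and incubated 48 hours with HeLa miR-21-FLuc reporter cells (miR-21 target sequence downstream of FLuc, endogenous miR-21). Readout was firefly luciferase luminescence after lytic detection reagent.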
# * hit, by the source's call; ? = inconclusive; [ ] = another dose, or the depositor's remark.
SMILES,miR-21 FLuc
COc1cc(OC)c(NC(=O)C2CCCN(c3ncnc4c3nc3n4CCCCC3)C2)cc1Cl (stereo not drawn),-6%
CCCCn1c2ccccc2c2nnc(SCC(=O)Nc3ccc(NC(C)=O)cc3)nc21,0%
O=C(Nc1ccccc1)C(Cc1ccccc1)N1Cc2ccccc2C1=O (stereo not drawn),-4%
CCc1ccccc1NC(=O)CSc1nnc2ccc3ccccc3n12,-22%
Cc1ccc(C)c(OCC(=O)Nc2ccc(S(=O)(=O)Nc3onc(C)c3C)cc2)c1C,22%
CC(=O)N1c2ccc(S(=O)(=O)N3CCCCCC3)cc2CC1C(=O)NCc1cccc(C)c1 (stereo not drawn),-1%
Cc1ccc(C)c(Cn2c(=O)c3c(nc4n3CCN4c3ccc(F)cc3)n(C)c2=O)c1,-2%
CCOC(=O)c1c(-c2ccccc2)oc2cc(Br)c(OCc3ccccc3)cc12,1%
CCCNC(=O)c1ccc2c(c1)nc1n2CCCCC1,12%
CCN(CC)C(=O)CSc1nc(-c2ccccc2F)nc2c1Cc1c(CO)cnc(C)c1O2,17%
CCOC(=O)Cn1c(=O)n(CC2CCCO2)c2nc(-c3ccccc3F)nc(C(N)=O)c21 (stereo not drawn),4%
CCOc1ccc(CNC(=O)c2ccccc2NC(=O)c2nsc3ccccc23)cc1,-4%
Cc1cccc(N2CCN(S(=O)(=O)c3cc(Cl)ccc3Cl)CC2)c1C,-6%
COc1ccc(-c2noc(-c3ccc(N4CCN(C)CC4)c([N+](=O)[O-])c3)n2)cc1OC,0%
CCn1cc(C(=O)N2CCN(c3ccccc3)CC2)c(=O)c2cc(S(=O)(=O)N(C)C)ccc21,-1%
Cc1ccc2[nH]c3c(c2c1)CN(C(=O)CN1CCSCC1)CC3,-8%
Cc1cc(=O)[nH]c2nnc(SCc3ccc(Cl)c(Cl)c3)n12,-11%
COc1ccccc1N1CCN(c2nc3ccccc3n3cnnc23)CC1,-8%
CC(C)c1ccc(NC(=O)C2CCCN(S(=O)(=O)c3cccc4cccnc34)C2)cc1 (stereo not drawn),20%
COC(=O)c1cnn(-c2ccc(C(=O)Nc3ccc(OC(F)(F)F)cc3)cc2)c1N,24%
COc1ccc(NC(=O)COCc2cc(-c3ccco3)on2)cc1,2%
CCCOc1ccc(CNC(=O)CCCn2nc(C)c3sc4ccccc4c3c2=O)cc1,-18%
CN1CCN(CCCNC(=O)c2cnn(-c3ccccc3)c2C2CCN(C(=O)OC(C)(C)C)CC2)CC1,-8%
CCc1ccc2ncc3c(-c4ccc(C)cc4)nn(CC(=O)NCc4ccccc4)c3c2c1,-2%
CCc1cccc(CC)c1NC(=O)C(CC)n1nc(C)n2c(cc3cc(C)ccc32)c1=O (stereo not drawn),-14%
Cc1ccccc1Cn1c(CN2CCC(C(=O)NCCc3ccccc3)CC2)cc2ccccc21,8%
O=C(COc1ccccc1F)NC1CC(=O)N(c2ccc3c(c2)OCCO3)C1 (stereo not drawn),3%
Cc1cccc(-c2nc(CSCC(=O)N3CCN(c4ccccc4)CC3)c(C)o2)c1,18%
Oc1c(C(c2ccccc2Cl)N2CCCC2)sc2nc(-c3ccco3)nn12 (stereo not drawn),23%
O=C(CN1C(=O)CCSc2ccccc21)Nc1ccc(C(F)(F)F)cc1,27%
Cc1ccc(Cl)c2sc(N3CCN(C(=O)C4CC4)CC3)nc12,1%
Cc1csc2nc(-c3cccc(NS(C)(=O)=O)c3)cn12,-27%
Cc1ccc(CSc2ncc(Cl)c(C(=O)NCCc3ccc(S(N)(=O)=O)cc3)n2)cc1,19%
CCN(CC)C(=O)Cn1c(=O)nc(-c2ccccc2F)c2cc(Cl)ccc21,0%
CCCCNC(=O)CSc1nc2ccccc2nc1Cc1ccccc1,-2%
Cc1cccc(Cn2c(=O)n(Cc3ccccc3)c(=O)c3oc4ccccc4c32)c1,-2%
CCc1ccc(C(=O)c2cn(CC(=O)NC3CCCCC3)c3nc(C)ccc3c2=O)cc1,2%
COCCOC(=O)C1=C(C)NC(=O)NC1c1cn(-c2ccccc2)nc1-c1ccccc1 (stereo not drawn),-13%
Cc1nn(C)c(C)c1CCNC(=O)Nc1ccccc1C(F)(F)F,-3%
CCc1cccc(C)c1NC(=O)CCn1nc(C)c2c(C)n(-c3ccccc3)nc2c1=O,3%
COc1ccccc1CNC(=O)CN1C(=O)CSc2c1c(C)nn2-c1ccccc1,0%
Cc1cc(NC(=O)c2cc(-c3ccc(Cl)cc3)on2)n(-c2ccccc2)n1,-7%
O=C(CSc1nc(-c2ccccc2)c2ccccc2n1)Nc1ccc(F)cc1,6%
Cc1cc(=O)n(CC(=O)N2CCN(c3ccccc3F)CC2)c2c1c(C)nn2C,21%
COc1ccc2c(c1)-c1nc(NC(=O)c3ccccc3F)sc1CC2,-41%
Cc1ccc(-c2nc3ccccc3o2)cc1NC(=O)c1cccc2c(Cl)cccc12,-8%
Cc1ccc(NC(=O)COc2ccc3oc4c(c3c2)CCCC4)c(C)c1,0%
Cc1cc(C)cc(NC(=O)C(=O)NCCc2sc(-c3cccc(F)c3)nc2C)c1,-3%

# Part of the list above, bar-delimited:
SMILES | miR-21 FLuc
Cc1ccc(Cl)c2sc(N3CCN(C(=O)C4CC4)CC3)nc12 | 1%
Cc1csc2nc(-c3cccc(NS(C)(=O)=O)c3)cn12 | -27%
Cc1ccc(CSc2ncc(Cl)c(C(=O)NCCc3ccc(S(N)(=O)=O)cc3)n2)cc1 | 19%
CCN(CC)C(=O)Cn1c(=O)nc(-c2ccccc2F)c2cc(Cl)ccc21 | 0%
CCCCNC(=O)CSc1nc2ccccc2nc1Cc1ccccc1 | -2%
Cc1cccc(Cn2c(=O)n(Cc3ccccc3)c(=O)c3oc4ccccc4c32)c1 | -2%
CCc1ccc(C(=O)c2cn(CC(=O)NC3CCCCC3)c3nc(C)ccc3c2=O)cc1 | 2%
COCCOC(=O)C1=C(C)NC(=O)NC1c1cn(-c2ccccc2)nc1-c1ccccc1 (stereo not drawn) | -13%
Cc1nn(C)c(C)c1CCNC(=O)Nc1ccccc1C(F)(F)F | -3%
CCc1cccc(C)c1NC(=O)CCn1nc(C)c2c(C)n(-c3ccccc3)nc2c1=O | 3%
COc1ccccc1CNC(=O)CN1C(=O)CSc2c1c(C)nn2-c1ccccc1 | 0%
Cc1cc(NC(=O)c2cc(-c3ccc(Cl)cc3)on2)n(-c2ccccc2)n1 | -7%
O=C(CSc1nc(-c2ccccc2)c2ccccc2n1)Nc1ccc(F)cc1 | 6%
Cc1cc(=O)n(CC(=O)N2CCN(c3ccccc3F)CC2)c2c1c(C)nn2C | 21%
COc1ccc2c(c1)-c1nc(NC(=O)c3ccccc3F)sc1CC2 | -41%

# The main list resumes with the 2 entries that preceded the break.
SMILES,miR-21 FLuc
Cc1ccc(NC(=O)COc2ccc3oc4c(c3c2)CCCC4)c(C)c1,0%
Cc1cc(C)cc(NC(=O)C(=O)NCCc2sc(-c3cccc(F)c3)nc2C)c1,-3%
Cc1ccc(-c2nc(-c3cc4cccc(OCc5cccc(C)c5)c4oc3=O)no2)cc1,-3%
CCc1ccc(CNC(=O)c2nn(-c3ccc(C)c(C)c3)nc2CO)cc1,0%
COc1ccc(CNC(=O)c2nn(C)c3c2CSc2ccccc2-3)cc1,-8%
Cc1cccc(Cn2cnc3c(oc4ccccc43)c2=O)c1,-3%
Cc1ccccc1CCNCc1c(C(=O)O)c(C)n(Cc2c(F)cccc2Cl)c1C,4%
O=C(CN1C(=O)COc2ccc(S(=O)(=O)N3CCCCC3)cc21)NCCc1ccc(Cl)cc1,-1%
CCC(=O)N1CCc2cc(CNC(=O)Nc3cc(OC)c(OC)c(OC)c3)ccc21,-8%
CCOC(=O)CNS(=O)(=O)c1cc(-c2nnc(Nc3cccc(O)c3)c3ccccc23)ccc1C,13%
Cc1ccc(-c2cc3ncc(C(=O)c4cc([N+](=O)[O-])ccc4O)cn3n2)cc1,3%
COc1cc(CN(C(=O)c2ccccc2)c2ccccn2)cc(OC)c1OC,0%
CC1=C(C(=O)N2CCN(c3cccc(C(F)(F)F)c3)CC2)C2(CCCCC2)OC1=O,-2%
CCOc1ccc(CCNC(=O)CCc2cn(Cc3ccc(C)cc3)c3ccccc23)cc1,10%
Cc1cccc2cc(CN(C(=O)c3cccc(Cl)c3)c3ccccc3)c(=O)[nH]c12,-1%
Cc1ccc(C)c(N2CCN(C(=O)C3CCN(C(=O)c4cc5sccc5n4C)CC3)CC2)c1,?
O=C(c1cc(-c2ccc(Cl)cc2)on1)N(Cc1ccc(F)cc1)Cc1ccco1,-5%
Cc1ccc2c(=O)c(C(=O)c3ccccc3)cn(CC(=O)Nc3ccccc3C)c2n1,-1%
COc1cc(NC(=O)CCn2cnc3ccccc3c2=O)cc(OC)c1,5%
CCC(NC(=S)NC1CCCCC1)c1ccc(C)cc1 (stereo not drawn),14%
COc1ccc(-c2noc(-c3ccc(NC(C)c4ccccc4)c([N+](=O)[O-])c3)n2)cc1OC (stereo not drawn),25%
Cn1c2ccccc2c2cnn(CC(=O)N3CCN(c4cccc(C(F)(F)F)c4)CC3)c(=O)c21,-2%
CCCC[C@]12Cc3cc(C#N)ccc3C(O1)c1c(cc(C)n(-c3ccccc3)c1=O)O2,-5%[7.66 µM]
COc1cccc(Cn2c(CNS(=O)(=O)c3ccc(C(C)(C)C)cc3)nc3cccnc32)c1,16%
Cc1cc(C)c2c(CC(=O)Nc3c(C(=O)c4ccc(F)cc4)oc4ccccc34)coc2c1,2%
O=C(NCCCc1nc2ccccc2n1Cc1cccc(Cl)c1)C1CCCCC1,16%
CCOc1ccc(NC(=O)c2cc3cc(C)ccc3n2C)cc1,-12%
O=C(O)CCn1cnc2onc(-c3cc(F)cc(F)c3)c2c1=O,0%
Cc1c(Cl)cccc1NC(=O)C(=O)NCCc1csc2nc(-c3ccccc3F)nn12,22%
CCN1C(=O)c2ccccc2S(=O)(=O)c2ccc(C(=O)NCc3ccccc3Cl)cc21,0%
CC(C)(C)OC(=O)N1CCC(c2c(C(=O)N3CCN(c4ccc(Cl)cc4)CC3)cnn2-c2ccc(F)cc2F)CC1,25%
Cc1nc2c(C(=O)NCc3ccccc3Cl)cnn2c(C)c1Cc1ccccc1,-2%
CC(=O)c1ccc(Nc2nc3c(S(=O)(=O)c4ccccc4)nnn3c3ccc(Cl)cc23)cc1,1%
Cc1csc2nc(CCNS(=O)(=O)c3ccc(F)cc3)cn12,-6%
CCOc1cccc(NC(=O)C2CC(=O)N(C)C(=Nc3ccc(F)cc3)S2)c1 (stereo not drawn),11%
N#Cc1ccc(CSc2nc3c(c(=O)[nH]2)CCC3)cc1,-8%
COc1ccc(-c2c3c(nc4sc(C(=O)Nc5cccc(OC)c5)c(N)c24)CC(C)(C)CC3=O)cc1,2%
Cc1cccc(OCc2ccc(-c3nc(C#N)c(N4CCN(c5ccccc5)CC4)o3)o2)c1,0%
COc1ccc(-c2ccc(CNCc3ccccn3)o2)cc1Cl,-27%
CCc1ccc(S(=O)(=O)c2nnn3c2nc(Nc2cc(OC)ccc2OC)c2sccc23)cc1,0%
CCCn1c(=O)c2sccc2n2c(CCCC(=O)N3CCN(c4ccccc4OC)CC3)nnc12,-8%
CSc1ccc(CCNC(=O)c2ccc(CS(=O)(=O)c3ccc(Br)cc3)o2)cc1,19%
COC(=O)c1cc(S(=O)(=O)N2CCN(c3cccc(C)c3)C(C)C2)cn1C (stereo not drawn),3%
Cc1ccc(-n2nc(CO)c(C(=O)NCCC(C)C)n2)cc1C,19%
CCc1ccc(S(=O)(=O)Nc2cccc(-c3ccc(OC)nn3)c2)s1,6%
Cc1ccccc1NC(=O)c1c(NC(=O)c2ccccc2)sc2c1CCC2,-20%
O=C(CN1C(=O)C2CCCCN2c2ccc(C(=O)N3CCCC3)cc21)NCc1ccc(F)cc1 (stereo not drawn),0%
O=C(CSc1nccn1Cc1ccc(Cl)cc1)NC1CCCC1,5%
Cc1ccc(-c2cc(C(F)(F)F)c(C#N)c(SCC(=O)Nc3ccccc3)n2)cc1,-1%
CCN(CC)CCCNC(=O)c1ccc(Cn2c(SCc3ccccc3)nc3cccnc32)cc1,-34%
CCN(CC)c1ccc2cc(C(=O)NCc3ccc(F)cc3)c(=N)oc2c1,-8%
CCc1ccccc1Nc1sc(C(=O)c2ccccc2)c(N)c1S(=O)(=O)c1ccccc1,10%
CCOC(=O)c1c(NC(=O)c2cc(-c3ccc(Br)cc3)on2)sc(C)c1C,1%
O=C(CC1(O)C(=O)N(CCc2ccccc2)c2ccc(Br)cc21)c1ccccc1O (stereo not drawn),28%
COc1ccccc1C1C(C(N)=O)=C(C)Nc2nc(SCc3ccccc3F)nn21 (stereo not drawn),-4%
O=C(COC(=O)c1cc(-c2cccs2)nc2ccccc12)c1ccccc1,-7%
O=C(CS(=O)(=O)c1cccc2nsnc12)Nc1ccc(F)cc1,-1%
CCC(=O)N1c2ccc(S(=O)(=O)CCC(=O)N3CCN(c4ccc(F)cc4)CC3)cc2CC1C (stereo not drawn),13%
COc1ccc(Nc2oc(-c3ccc(COc4ccccc4C)o3)nc2C#N)cc1,-12%
CCc1ccc(CNC(=O)C2Cc3cc(S(=O)(=O)N4CCCCCC4)ccc3N2C(C)=O)cc1 (stereo not drawn),0%
Cc1nc2c(-c3ccccc3)c(C)nn2c(C)c1CCC(=O)NC(C)c1ccccc1 (stereo not drawn),-1%
COc1cccc(N2CCN(C(=O)c3cnc4c(-c5ccccc5)c(C)nn4c3C)CC2)c1,-4%
Cc1cc(C)n(-c2nc(C)c(C)c(=O)n2CC(=O)Nc2ccc([N+](=O)[O-])cc2)n1,-2%
CCOc1ccc(NC(=O)c2sc3nc4n(c(=O)c3c2C)CCCC4)cc1,19%
COC(=O)Cc1c(C)c2cc3c(c(C)c2oc1=O)OCN(CCc1ccccc1F)C3,-22%

# An excerpt; rates above refer to the full screens.
